Screens (PubChem BioAssay)
2A StopGo = FMDV 2A StopGo reporter, luciferase signal; human cells with a luciferase reporter of 2A StopGo recoding; control for the full effect not named in the record; Potency, µM (doses to about 57.9 µM), without a hit: at the top dose signal change, negative = less light; 410,000 tested, 1.2% active; active = well fitted falling curve with a large enough effect; inconclusive = small, poorly fitted or top-dose-only effect; inactive = no such curve, though single readings can be large or run the other way; tested in HEK293T cells; note: % is set by controls: 0 for no effect and ±100 for the full control effect; nearly all actives have a fitted effect of over 45% in size; luciferase light after 4 h
Lassa entry inh = inhibitors of Lassa virus binding or cell entry. Lassa virus pseudotype entry inhibition, cell reporter; control for the full effect not named in the record. Potency, µM (series often up to 37.9 µM), inactives show at the top dose activity change, negative = inhibition, usual class: inhibitors. 300,000 tested, 1.2% active. AID 540256; active means well fitted inhibition curve with a large enough effect; inconclusive means small, poorly fitted or top-dose-only effect, or effect the other way; inactive means flat fitted curve, though single readings scatter; tested in HEK293 cells; note: % is set by controls: 0 for no effect and ±100 for the full control effect; nearly all actives have a fitted effect of over 50% in size; luciferase read-out
Cruzain Triton = inhibitors of Trypanosoma cruzi cruzain with detergent | purified cruzain, Z-FR-AMC fluorescence, 0.01% Triton | AID 1478 | 200,000 tested, 0.43% active | Potency, µM, inactives show max response, negative = inhibition, hits mostly inhibitors;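 note: plate controls were neutral wells for no effect and buffer without enzyme for full effect; nearly all actives have a fitted effect of over 40% in size; top concentration of the series not given in the record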
Target sequence (P25779 123-467 limits assumed): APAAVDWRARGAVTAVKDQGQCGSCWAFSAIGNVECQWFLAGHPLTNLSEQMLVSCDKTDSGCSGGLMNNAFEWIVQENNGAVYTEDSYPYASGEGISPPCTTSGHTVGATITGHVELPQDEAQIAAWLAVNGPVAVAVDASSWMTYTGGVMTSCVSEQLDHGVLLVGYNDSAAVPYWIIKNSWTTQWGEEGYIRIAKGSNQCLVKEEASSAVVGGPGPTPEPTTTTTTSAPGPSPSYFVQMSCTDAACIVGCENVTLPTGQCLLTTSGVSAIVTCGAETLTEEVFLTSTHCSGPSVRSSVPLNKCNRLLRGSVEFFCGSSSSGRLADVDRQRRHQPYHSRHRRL
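15 min RT preincubation of 1.5 nM cruzain with compound, then 2 uM Z-FR-AMC added; kinetic AMC fluorescence, 60 s delta. Triton X-100 0.01%, pH 5.5.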
NS1 inh = influenza NS1 inhibition; 270,000 tested, 0.4% active; S. cerevisiae slowed by influenza A NS1, growth recovery by OD600; AID 2326; Potency, µM (doses to about 46.1 µM), inactives show at the top dose activity, positive = more growth; active means well fitted rising curve with a large enough effect; inconclusive means small, poorly fitted or top-dose-only effect; inactive means no such curve, though single readings can be large or run the other way; note: nearly all actives have a fitted effect of over 50% in size
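Read-out: OD600 growth recovery of NS1-expressing budding yeast. Cells grown overnight at 30C in -URA glucose medium, washed, resuspended and diluted 1:100 in 2% galactose assay medium, pH 6.0. Same strain lacking NS1 served as positive control.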
SARS PLpro yeast = SARS-CoV PLP inhibition in yeast; S. cerevisiae expressing SARS-CoV PLpro, growth rescue; control for the full effect not named in the record; Potency, µM (top dose mostly 32.9 µM), inactives show at the top dose activity, positive = growth rescue; 330,000 tested, 0.19% active; AID 485353; active means well fitted rising curve with a large enough effect; inconclusive means small, poorly fitted or top-dose-only effect; inactive means no such curve, though single readings can be large or run the other way; note: 0% is about no effect; nearly all actives have a fitted effect of over 55% in size; growth read by luminescence after 48 h
MARV entry inh = inhibitors of Marburg virus binding or cell entry; Marburg virus pseudotyped entry inhibition, cell reporter; control for the full effect not named in the record; about a third of the inactives were read at about 46 µM; Potency, µM (doses to about 37.8 µM), without a hit: top-dose activity change, negative = inhibition, usual class: inhibitors; 300,000 tested, 1.8% active; active = well fitted inhibition curve with a large enough effect; inconclusive = small, poorly fitted or top-dose-only effect, or effect the other way; inactive = flat fitted curve, though single readings scatter; tested in HEK293 cells; about a fifth of its hits are not listed in these tables; note: % is set by controls: 0 for no effect and ±100 for the full control effect; luciferase read-out
Cruzain noTriton = inhibitors of Trypanosoma cruzi cruzain without detergent; Potency, µM, for inactives: max response, negative = inhibition, actives largely listed as inhibitors; P25779; purified cruzain, Z-FR-AMC fluorescence, no detergent; AID 1476; 200,000 tested, 2.3% active;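 note: plate controls were enzyme without inhibitor for no effect and buffer without enzyme for full effect; nearly all actives have a fitted effect of over 40% in size; top concentration of the series not given in the record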
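Detergent-free condition (0.00005% Triton X-100) in acetate buffer pH 5.5 with DTT. 1.5 nM enzyme and compound were pre-mixed 15 min, then 2 uM Z-FR-AMC substrate added; reaction progress from fluorescence change between first and third reads (60 s).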
RE007 growth inh = less growth of the S. pombe RE007 Vpr strain; 360,000 tested, 0.21% active; AID 651644; S. pombe RE007 Vpr strain, BacTiter-Glo ATP luminescence, 24 h; control for the full effect not named in the record; Potency, µM (titrated, usually from 92.2 µM), for the others: at the top dose activity change, negative = less growth; active = well fitted falling curve with a large enough effect; inconclusive = small, poorly fitted or top-dose-only effect; inactive = no such curve, though single readings can be large or run the other way;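 note: % is set by controls: 0 for no effect and ±100 for the full control effect; nearly all actives have a fitted effect of over 50% in size; the assay follows cell death caused by Vpr and the record does not say whether a fall means rescue or toxicity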
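Fission yeast strain RE007, carrying one chromosomally integrated HIV-1 vpr copy, was seeded at OD 0.01 in PMG+AL medium with 23 nL pinned compound. After 24 h at 30 °C and 99% humidity, viability was read by BacTiter-Glo luminescence.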
Active calls of the source: *; ? = inconclusive; nt = not tested or not shown; [ ] = remark or other dose. Unless noted, calls come from the whole dose curve; as a rule, active = well fitted curve in the direction sought with a large enough effect; inconclusive = small, poorly fitted or top-dose-only effect, or another doubt; inactive = no such curve, though single readings can be large; an effect the other way counts as inactive or inconclusive. Potency is the fitted concentration of half-maximal effect. Hits appear at their usual frequency (roughly 4.7% active in at least one column).

no.	smiles	2A StopGo	Lassa entry inh	Cruzain Triton	NS1 inh	SARS PLpro yeast	MARV entry inh	Cruzain noTriton	RE007 growth inh
1	O=C(OCc1c(Cl)cccc1Cl)c1cccnc1	4%	0%	-3.7%	-54%	0%	0%	-12%	9%
2	c1ccc2c(c1)Oc1ccccc1S2	-25%	nt	-0.8%	nt	-5%	nt	-4%	-7%
3	O=C(/C=C/c1cccc([N+](=O)[O-])c1)OCC(=O)N1CCN(C(=O)c2ccco2)CC1	-14%	-20%	nt	nt	9%	-13%	nt	0%
4	CCOC(=O)c1c(NC(=O)c2ccccc2C)sc2c1CCCC2	-17%	5%[46.1 µM]	-2.8%	nt	nt	12%[46.1 µM]	-2%	nt
5	Cc1ccc(C(OCC(O)CNC(C)c2ccccc2)c2ccccc2)cc1 (stereo unspecified)	-28%	?	nt	2%	0%	?	nt	-28%
6	COc1ccc2nc(N/C(N)=N/C(=S)Nc3cccc(C)c3)nc(C)c2c1	-2%	-17%	-9.1%	?	?	?	?	5%
7	COc1ccc(/C=N\NC(=O)COc2ccccc2)c(C(=O)O)c1OC	-9%	-8%[46.1 µM]	-3.1%	-1%	?	8%[46.1 µM]	1%	10%
8	CCn1ncc(Cl)c1C(=O)NC(C)c1ccccc1 (stereo unspecified)	nt	0%	-2.0%	1%	4%	9%	1%	0%
9	O=C(/C=C/c1ccc(Cl)cc1)NC(=S)Nc1ccccc1C(=O)O	-1%	nt	nt	-41%	1%	nt	nt	?
10	CC1(C)C2CC=C(/C=N/NC(=O)c3ccccc3Br)C1C2 (stereo unspecified)	24%	nt	-1.6%	6%	10%	nt	1%	13%
11	O=C1C2C3C=CC(C3)C2C(=O)N1c1n[nH]c(CCc2ccccc2)n1 (stereo unspecified)	42%[activator]	-23%	4.1%	?	4%	28%	-3%	5%
12	CCOC(=O)CSc1ccc2nnc(-c3cccs3)n2n1	-22%	nt	-10%	-11%	10%	nt	-15%	-5%
13	Cc1ccccc1NC(=O)CSCCN1C(=O)c2ccccc2C1=O	-8%	8%[46.1 µM]	2.3%	4%	15%	-5%[46.1 µM]	-1%	7%
14	O=C(NCC(c1cccs1)N1CCOCC1)c1cc(=O)[nH]c2ccccc12 (stereo unspecified)	-4%	13%	nt	nt	-4%	22%[46.1 µM]	nt	14%
15	CC1(C)CC(N2CCC(=O)NC2=S)CC(C)(C)N1	-9%	6%	nt	nt	nt	9%[46.1 µM]	nt	22%
16	CNC(=O)C(=O)Nc1c(O)c2ccccc2[nH]c1=O	-20%	17%[46.1 µM]	nt	1%	1%	-2%[46.1 µM]	nt	13%
17	COc1ccc(N2CCN(C(=O)[C@H](C)N3C(=O)C4CC=CCC4C3=O)CC2)cc1 (stereo partly specified)	-25%	?	nt	nt	-4%	?	nt	7%
18	O=C(NC(NNc1ccc([N+](=O)[O-])cc1)(C(F)(F)F)C(F)(F)F)c1ccc(F)cc1	?	-17%	-6.8%	-21%	-53%	-7%	-3%	-10%
19	Cc1ccc(N2CC(=O)N(NC(=O)Nc3ccc(Cl)c(Cl)c3)CC2=O)cc1	-14%	-4%	nt	4%	1%	-11%	nt	-16%
20	COc1ccccc1N(C(=O)CNC(=O)c1ccco1)C(C(=O)NCC1CCCO1)c1ccccc1 (stereo unspecified)	15%	nt	nt	2%	3%	9%[46.1 µM]	nt	13%

Continued.
no.	smiles	2A StopGo	Lassa entry inh	Cruzain Triton	NS1 inh	SARS PLpro yeast	MARV entry inh	Cruzain noTriton	RE007 growth inh
21	COc1ccc(-n2nc(C(=O)N3CCN(c4cccc(C)c4C)CC3)c3c4ccccc4n(C)c3c2=O)cc1Cl	-4%	17%[46.1 µM]	-4.3%	nt	nt	1%[46.1 µM]	-13%	nt
22	Cc1cc(C)c2c(c1)SC1=NC(c3ccccc3)(C(F)(F)F)NC(=O)N12 (stereo unspecified)	67%[activator]	?	-14%	-57%	-15%	15%	-3%	-11%
23	CC(C)=CC(=O)Nc1ccc(S(=O)(=O)Nc2onc(C)c2C)cc1	-6%	21%	nt	-9%	-6%	14%	nt	2%
24	COc1cccc(-n2c(=O)c3sc4ccccc4c3n(CC(=O)Nc3ccc(F)cc3F)c2=O)c1	1%	0%[46.1 µM]	-2.5%	nt	nt	9%[46.1 µM]	-8%	nt
25	CC(=O)n1cc([C@H]2C=C(C(=O)O)O[C@@H](OCCCCO)C2)c2ccccc21	-6%	nt	nt	1%	-2%	nt	nt	-12%
26	O=C(O)c1ccc2c(c1)C(=O)N(c1ccccc1-c1ccccc1)C2=O	10%	4%[46.1 µM]	nt	1%	0%	-7%[46.1 µM]	nt	11%
27	CCCCN(CC)S(=O)(=O)c1ccc(C(=O)Nc2nnc(CSC)o2)cc1	-12%	?	-1.9%	-89%	-11%	?	?	1%
28	CCOC(=O)c1ccc(NC(=S)NCCCn2ccnc2)cc1	23%	15%[46.1 µM]	nt	6%	0%	?	nt	-22%
29	CC(C)CSC1=NSC2=NC(=O)/C(=C\c3coc4ccccc4c3=O)C(=N)N12	?	-2%[46.1 µM]	nt	nt	-13%	?	nt	-1%
30	Cc1ccc(C(=O)N2CCN(c3ccc(F)cc3)CC2)cc1S(=O)(=O)N1CCCCC1	?	?	nt	-9%	-7%	?	nt	-3%
31	CCOC(=O)CSc1cc(C)nc(NC(C)=O)n1	1%	0%	4.5%	3%	5%	?	-5%	2%
32	Cc1ccc2c(C)c(C(=O)Nc3ccc(S(=O)(=O)Nc4onc(C)c4C)cc3)oc2c1	-11%	-11%[46.1 µM]	nt	7%	14%	5%[46.1 µM]	nt	-1%
33	Cn1c(=O)n(CCCOc2ccc(Br)cc2)c2ccccc21	-23%	5%	-2.6%	-77%	nt	7%	?	6%
34	CCN(CC)S(=O)(=O)c1cc(C(=O)OCC(=O)c2ccc3c(c2)NC(=O)CO3)ccc1Cl	33%[activator]	2%	-4.2%	9%	nt	-5%	3%	11%[3.69 µM]
35	CN(C)CCNC(=S)NC1CCCCC1	-7%	nt	nt	0%	-1%	nt	nt	4%
36	CCCC(=O)Nc1c(C)nn(C(=O)CCC)c1C	-18%	10%	2.4%	-3%	nt	2%	0%	20%
37	COc1ccc(-n2c(=O)c3ccc(C(=O)NCc4ccc(C)cc4)cc3n(CC(=O)Nc3ccc(F)cc3)c2=O)cc1	32%[activator]	1%[46.1 µM]	-0.7%	nt	nt	?	?	nt
38	Cc1ccccc1C(=O)NCc1nc(-c2ccc(Cl)cc2)no1	-24%	?	-2.4%	nt	nt	-1%[46.1 µM]	2%	nt
39	CC(=O)c1cccc(NC(=O)Nc2ccccc2)c1	39%[activator]	2%[46.1 µM]	nt	-5%	0%	?	nt	10%
40	Cc1nc(OCc2c(C)noc2C)c2ccccc2n1	-14%	4%	nt	nt	3%	3%[14.2 µM]	nt	3%

Remaining list, next part
no.	smiles	2A StopGo	Lassa entry inh	Cruzain Triton	NS1 inh	SARS PLpro yeast	MARV entry inh	Cruzain noTriton	RE007 growth inh
41	CC1=C([N+](=O)[O-])C(c2ccc(O)c(O)c2)NC(=O)N1 (stereo unspecified)	-11%	-6%[46.1 µM]	nt	1%	-2%	29%[46.1 µM]	nt	4%
42	CCOC(=O)CC(=O)CSc1n[nH]c(=O)[nH]c1=O	-11%	nt	nt	-1%	-1%	-4%	nt	4%
43	Cc1ccc(-c2noc(-c3cccnc3N(C)Cc3ccc(Cl)cc3)n2)cc1	1%	-3%[46.1 µM]	-2.3%	nt	nt	-22%[46.1 µM]	1%	nt
44	O=C(CCN1CCOCC1)NCC1COc2ccccc2O1 (stereo unspecified)	-9%	6%	-0.4%	-3%	-22%	?	0%	22%
45	COCCn1c(SC(C)C(=O)NC2CCCCC2C)nc2ccccc2c1=O (stereo unspecified)	-13%	?	nt	nt	4%	19%	nt	13%
46	O=C1OC(Cc2ccccn2)C(O)=C1C1=NCCCN1 (stereo unspecified)	74%[activator]	?	-1.4%	-1%	6%	?	-1%	-5%
47	Cc1ccc(S(=O)(=O)Nc2ccc(Cl)cc2C(=O)c2ccccc2)cc1	-16%	?	-8.2%	-14%	-42%	-22%	-2%	2%
48	O=C(COC(=O)c1ccc([N+](=O)[O-])s1)NC(c1ccccc1)c1ccccc1	-3%	10%	-5.2%	24%	18%	?	-12%	-17%
49	O=C(Nc1ccc(Nc2ccccc2)cc1)C1CC1	38%[activator]	?	5.8%	13%	-23%	1%[46.1 µM]	-16%	18%
50	O=C(O)c1cccc(S(=O)(=O)Nc2cccc(S(=O)(=O)Nc3ccc(Br)cc3)c2)c1	26%	-5%	nt	nt	1%	-10%	nt	0%
51	CN(Cc1c(C(=O)N/N=C/c2cccc(F)c2)nnn1-c1nonc1N)C1CCCCC1	4%	nt	nt	-4%	0%	nt	nt	-15%
52	CCCN(CCC)Cc1c(C(=O)N/N=C/c2ccc(C)o2)nnn1-c1nonc1N	17%	-14%	nt	-1%	1%	-29%[46.1 µM]	nt	-2%
53	C=CCSc1nnc(NC(=O)Cn2cnc3c2c(=O)n(C)c(=O)n3C)s1	-8%	-1%	nt	nt	0%	8%[46.1 µM]	nt	-1%
54	Cc1ccc(C(=O)NCCNc2nc3cc(C)c(C)cc3cc2C)cc1	?	?	nt	-41%	0%	?	nt	-7%
55	CN(C)S(=O)(=O)Oc1ccccc1C(=O)Nc1ccccc1Cl	0%	?	nt	-1%	0%	?	nt	-3%

By substructure, the compounds so far containing an NH in an aromatic ring.
no.	smiles	2A StopGo	Lassa entry inh	Cruzain Triton	NS1 inh	SARS PLpro yeast	MARV entry inh	Cruzain noTriton	RE007 growth inh
11	O=C1C2C3C=CC(C3)C2C(=O)N1c1n[nH]c(CCc2ccccc2)n1 (stereo unspecified)	42%[activator]	-23%	4.1%	?	4%	28%	-3%	5%
14	O=C(NCC(c1cccs1)N1CCOCC1)c1cc(=O)[nH]c2ccccc12 (stereo unspecified)	-4%	13%	nt	nt	-4%	22%[46.1 µM]	nt	14%
16	CNC(=O)C(=O)Nc1c(O)c2ccccc2[nH]c1=O	-20%	17%[46.1 µM]	nt	1%	1%	-2%[46.1 µM]	nt	13%
42	CCOC(=O)CC(=O)CSc1n[nH]c(=O)[nH]c1=O	-11%	nt	nt	-1%	-1%	-4%	nt	4%
